# Compound activity (PubChem BioAssay)
# D2 ag: human D2 receptor agonism in beta-arrestin assay; P14416; DiscoveRx PathHunter D2 beta-arrestin, luminescence, 90 min; 100% = 57 uM dopamine signal; activation, % (no concentration beside the values); 360,000 tested, 0.084% active; in the data active = activation above about 40%; inconclusive = about 15% to 40%; inactive = below about 15%; also: compound concentration not given in the record; the text of the record calls up to 30% inactive
#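 Agonist mode: compounds alone added to overnight-plated D2 PathHunter cells for 90 min at 37 C, with 57 uM final dopamine (EC100) defining full response. Beta-arrestin recruitment detected by chemiluminescent reagent, read after 1 h at ambient temperature.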
# Six1-Eya2 blk: inhibitors of human Six1/Eya2 interaction; AlphaScreen GST-Six1/His-Eya2 binding, biochemical; active compounds read low; control for the full effect not named in the record; activity change, % (test concentration not listed); 360,000 tested, 0.56% active; Q15475+O00167; in the data active = activity change below about -65%; inconclusive = about -30% to -65%; inactive = above about -30%; also: % is scaled to controls: 0 for no effect and ±100 for the full control effect
# Target sequence (O00167 whole entry, looked up): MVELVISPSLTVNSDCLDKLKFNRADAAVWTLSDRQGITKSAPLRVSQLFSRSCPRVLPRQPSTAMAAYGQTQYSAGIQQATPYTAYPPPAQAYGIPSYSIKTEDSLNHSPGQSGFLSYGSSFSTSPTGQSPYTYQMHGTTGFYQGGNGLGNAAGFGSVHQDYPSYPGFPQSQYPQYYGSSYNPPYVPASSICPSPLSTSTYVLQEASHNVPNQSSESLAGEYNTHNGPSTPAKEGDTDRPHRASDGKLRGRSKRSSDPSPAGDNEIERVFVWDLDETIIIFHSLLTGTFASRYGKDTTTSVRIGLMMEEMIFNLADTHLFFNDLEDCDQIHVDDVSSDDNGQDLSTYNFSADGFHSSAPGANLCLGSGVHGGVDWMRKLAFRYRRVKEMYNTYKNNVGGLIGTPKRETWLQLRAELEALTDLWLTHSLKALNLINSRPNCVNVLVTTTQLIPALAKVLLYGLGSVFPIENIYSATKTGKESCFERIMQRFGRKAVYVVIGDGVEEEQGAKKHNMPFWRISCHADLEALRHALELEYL
# Target sequence (Q15475 whole entry, looked up): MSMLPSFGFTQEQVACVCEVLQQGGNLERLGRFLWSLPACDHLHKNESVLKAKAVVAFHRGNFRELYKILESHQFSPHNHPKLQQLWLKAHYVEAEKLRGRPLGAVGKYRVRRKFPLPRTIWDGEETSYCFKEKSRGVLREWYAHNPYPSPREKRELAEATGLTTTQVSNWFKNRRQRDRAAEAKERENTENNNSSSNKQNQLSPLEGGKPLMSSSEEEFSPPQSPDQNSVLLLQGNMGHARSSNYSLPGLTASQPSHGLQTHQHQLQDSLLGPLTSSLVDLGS
#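 AlphaScreen with GST-Six1 and His-Eya2 (5X mix: 250 nM and 500 nM), glutathione donor and nickel acceptor beads; buffer 50 mM Tris pH 8.0, 300 mM NaCl, 1 mM TCEP; 1 h at 37 C in the dark.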
# TRPML1 blocker: human mucolipin-1 channel inhibition | Q9GZU1 | TRPML1-inducible cells, Ca2+ dye fluorescence, FDSS; active compounds read low; inhibition of EC80 agonist-evoked calcium signal | activity change, negative = inhibition, % (no concentration beside the values) | 390,000 tested, 0.02% active; in the data active means activity change below about -50%; inconclusive means about -30% to -50%; inactive means above about -30%;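 also: stimulus is agonist 54-4 at its EC80 concentration; % is scaled to controls: 0 for no effect and ±100 for the full control effect; compound concentration not given in the record; the text of the record puts the active cut at -80%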
#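 Calcium fluorescence in TRPML1-DL cells induced overnight with Tet: a 110 s read after compound pin addition, then a 110 s antagonist read after challenge with 54-4 at 4 uM final (EC80).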
# TRPML1 ag: agonists of human TRPML1 channel; Q9GZU1; TRPML1-expressing cells, Ca2+ dye fluorescence, FDSS; host cell line not named in the record; reference of the full effect not given here; activation, % (no concentration beside the values); 410,000 tested, 0.12% active; AID 624414; in the data active = activation above about 50%; inconclusive = about 30% to 50%; inactive = below about 30%; also: 0% is about no effect; the text of the record puts the active cut at 80%
#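 Tet-induced TRPML1-DL cells, 1,500 per well, cultured overnight, were loaded with a no-wash Ca2+ dye for 45–90 min. Calcium fluorescence was recorded on the FDSS for 110 s after compound addition, before the EC80 agonist (4 uM 54-4) was added.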
# D2 potentiator: positive allosteric modulators of human D2 dopamine receptor; potentiation, % (no concentration beside the values); AID 624464; P14416; DiscoveRx D2 beta-arrestin cells, luminescence, 90 min; 100% = 57 uM dopamine signal; 360,000 tested, 0.23% active; active = potentiation of 50% or more; inconclusive = 30% to 50%; inactive = 30% or less;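 also: compound concentration not given in the record; tested on top of an EC20 dose of dopamine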
#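 PathHunter beta-arrestin assay in DiscoveRx D2 cells. Compounds were added with an EC20 of dopamine (50 nM final) for 90 min at 37 deg C. Luminescence was read 1 h after detection reagent, with 57 uM dopamine as the EC100 control.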
# PINK1 expr mod: PINK1 expression modulation; 410,000 tested, 0.2% active; Potency, µM (highest dose often 76.6 µM), without a hit: at the top dose activation (PINK1 increase), most hits filed as activators; AID 624263; PINK1 immunofluorescence, high-content cytometry, 24 h; active = well fitted activation curve with a large enough effect; inconclusive = small, poorly fitted or top-dose-only effect; inactive = flat fitted curve, though single readings scatter; cell line not stated here;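 also: potency is read from the fitted curve at half-maximal effect; % of control where 0% means no effect; nearly all actives have a fitted effect of over 65% in size; a mitochondrial uncoupler was the plate control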
#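 Decision-based qHTS: stable cells, 24 h exposure to five compound concentrations, CCCP as control. Fixed cells stained for PINK1 plus nuclear, mitochondrial and cell markers, cytometer read.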
# * hit, by the source's call; ? = inconclusive; . = no result given; & = joins results of further samples; [ ] = dose if it differs, or a comment.
# Preview:
SMILES,D2 ag,Six1-Eya2 blk,TRPML1 blocker,TRPML1 ag,D2 potentiator,PINK1 expr mod
COc1ccc(NC(=O)c2cc(C)nc3c2c(C)nn3-c2ccc(C)cc2)cc1OC,.,.,-3,-1.1,.,2.3%
Cc1ccc(S(=O)(=O)N2CCN(C(=O)CCC(=O)NC3CCCc4ccccc43)CC2)cc1 (stereo unspecified),-3.7,0,0,-0.6,-6,1.3%
Cc1cccc(NC(=S)NCc2ccccn2)c1,-2.3,-12,10,-0.6,-6,3.7%

# This part in full, repeating the preview:
SMILES,D2 ag,Six1-Eya2 blk,TRPML1 blocker,TRPML1 ag,D2 potentiator,PINK1 expr mod
COc1ccc(NC(=O)c2cc(C)nc3c2c(C)nn3-c2ccc(C)cc2)cc1OC,.,.,-3,-1.1,.,2.3%
Cc1ccc(S(=O)(=O)N2CCN(C(=O)CCC(=O)NC3CCCc4ccccc43)CC2)cc1 (stereo unspecified),-3.7,0,0,-0.6,-6,1.3%
Cc1cccc(NC(=S)NCc2ccccn2)c1,-2.3,-12,10,-0.6,-6,3.7%
Cc1cccc(N2CCN(C(=O)CN3CCSc4ccccc43)CC2C)c1 (stereo unspecified),.,.,6,4.9,.,-0.1%
CC1(c2cccc(Br)c2)NC(=O)N(CC(=O)c2ccc3c(c2)OCCO3)C1=O (stereo unspecified),0.2,-1,41,-0.2,13,0.2%
Cc1cccc(C(=O)NCC(=O)NNC(=O)c2ccccc2O)c1,-2.3,-6,-14,-0.3,-5,2.4%
CCc1ccc(CNC(=O)CCS(=O)(=O)Cc2ccc(C)cc2)cc1,3.9,8,-8,0.4,-10,-1.8%
Cc1cc(C(=O)N(C2CCCCC2)C2CCCCC2)no1,-3.1,-1,3,1.8,-8,0.5%[38.3 µM]
C=CCn1c(SCC(=O)c2[nH]c(C)c(C(=O)OCC)c2C)nc2scc(-c3ccccc3)c2c1=O,-3.4,17,-5,-0.1,4,11%
C=CCn1c(CSc2nc3ccccc3s2)nnc1SCC(=O)NCc1cccnc1,-1.9,-1,-5,5.5,-10,-0.1%
CCCS(=O)(=O)c1c(S(=O)(=O)CCC)c2cc(C(C)(C)C)ccn2c1C(=O)c1ccc(C)cc1,.,.,4,-0.5,.,0.8%
CN(C)C(=O)C1C2NC(=S)N(c3ccccc3)C1(C)Oc1ccccc12 (stereo unspecified),-2.0,-1,-11,-0.4,-5,0.9%
Cc1sc2c(c1C)C(O)=C(C(=O)Nc1ccccc1)S(=O)(=O)N2C,-2.5,-1,-17,0.3,-2,0.6%
CCOc1ccc(NC(=O)CCS(=O)(=O)c2ccc(Br)cc2)cc1,5.9,-24,-2&13,2.1&1.8,-3,4.7%&-0.8%
CCOc1ccc(NC(=O)NCCn2nnc3cc(S(=O)(=O)N(C)C)ccc32)cc1,.,.,-6,-0.5,.,0.5%
COc1ccc2nc3oc(C(=O)N4CC(C)CC(C)C4)cc3cc2c1 (stereo unspecified),-8.4,-2,1,-0.7,-4,2.9%
COCCNC(=O)c1ccc(N(C)S(=O)(=O)c2ccc(OC)c(OC)c2)cc1,2.9,11,2,0.9,-11,-1.6%
S=C(Nc1ccc2c(c1)OCCO2)Nc1ccccc1Cl,-0.6,2,-3,0.5,-11,0.9%
CCCNC(=O)Cn1nc(-c2ccc(OC)cc2)c2cnc3ccc(F)cc3c21,.,.,24,0.1,.,1.8%
CCOc1ccc(C(=O)Nc2ccc(N3CCN(C)CC3)cc2)cc1[N+](=O)[O-],2.0,-10,-7,1.3,-10,-2.9%
COc1cccc(-c2nc(=S)c3c(n2CCCO)CCCC3)c1,-1.9,-2,6,0.4,-8,6.0%[38.3 µM]
Cc1cc(O)cc(C)c1NS(=O)(=O)c1ccc2ccccc2c1,-1.5,5,60,2.0,-13,-0.4%
CCCCOc1ccc([N+](=O)[O-])cc1C(=O)O,-1.9,-10,15,1.4,-8,2.3%
CCOc1ccc(CNC(=O)c2oc3c(c2C)-c2nn(Cc4cccc(Cl)c4)cc2CC3)cc1,.,.,25,0.7,.,-0.2%
COc1ccc(CNC(=O)COc2ccc(C(=O)c3ccc(F)cc3)cc2)cc1,-5.2,7,-8,-0.5,-4,0.2%
Cc1csc(/N=C/c2ccc([N+](=O)[O-])cc2)n1,3.6,2,-8,-0.5,3,-3.1%
CCOc1ccc(NC(=O)Cn2cc(C(=O)c3ccc(C)c(C)c3)c(=O)c3cc4c(cc32)OCCO4)cc1,.,.,2,2.9,.,0.3%
Cc1ccc(C2CC(c3cccs3)=NN2S(=O)(=O)c2ccc(C)cc2)cc1 (stereo unspecified),-4.5,-11,16,0.7,-9,-1.5%
CCC1CCCCN1CC(=O)Nc1ccc2c(c1)OCCO2 (stereo unspecified),-5.0,-7,16,-0.2,-10,-0.1%
S=C1SCN(Cc2cccnc2)CN1Cc1cccnc1,0.9,3,-5,-0.3,-4,2.1%

# 5 neighbouring records already listed, quoted:
SMILES,D2 ag,Six1-Eya2 blk,TRPML1 blocker,TRPML1 ag,D2 potentiator,PINK1 expr mod
COc1ccc(NC(=O)c2cc(C)nc3c2c(C)nn3-c2ccc(C)cc2)cc1OC,.,.,-3,-1.1,.,2.3%
Cc1ccc(S(=O)(=O)N2CCN(C(=O)CCC(=O)NC3CCCc4ccccc43)CC2)cc1 (stereo unspecified),-3.7,0,0,-0.6,-6,1.3%
Cc1cccc(NC(=S)NCc2ccccn2)c1,-2.3,-12,10,-0.6,-6,3.7%
Cc1cccc(N2CCN(C(=O)CN3CCSc4ccccc43)CC2C)c1 (stereo unspecified),.,.,6,4.9,.,-0.1%
CC1(c2cccc(Br)c2)NC(=O)N(CC(=O)c2ccc3c(c2)OCCO3)C1=O (stereo unspecified),0.2,-1,41,-0.2,13,0.2%

# Additional results follow:
SMILES,D2 ag,Six1-Eya2 blk,TRPML1 blocker,TRPML1 ag,D2 potentiator,PINK1 expr mod
O=C(Nc1ccc(F)cc1F)NC1CCN(Cc2c(F)cccc2Cl)CC1,-3.8,-1,-15,0.5,-17,-0.1%
Nc1ccc(S(=O)(=O)NC2(C(F)(F)F)NC(=O)N(c3ccccc3F)C2=O)cc1 (stereo unspecified),-0.7,2,-2,1.0,0,0.7%
Cc1ccc(-c2cc(C(=O)N/N=C/c3cccnc3)n[nH]2)o1,1.0,-5,-18,0.8,-2,-2.2%
CCOC(=O)C1CCCN(c2c(NCC3CCCO3)c(=O)c2=O)C1 (stereo unspecified),-3.8,6,32,0.2,-5,0.6%
COc1cccc(-c2nc(CS(=O)(=O)CC(=O)Nc3ccc(C(C)=O)cc3)c(C)o2)c1,-3.0,4,1,-0.5,-1,-0.4%
COc1ccc(S(=O)(=O)N2CCCc3ccccc32)cc1[N+](=O)[O-],-5.8,-8,.,.,-3,5.5%
Cc1ccc(C(C(=O)NC(C)(C)C)N(Cc2ccco2)C(=O)CCC(=O)Nc2ccccn2)cc1 (stereo unspecified),-0.3,-3,9,2.2,2,0.0%
CCc1nc2ccc(C(=O)Nc3ccc(OC)c(OC)c3)cn2c1N(C)Cc1ccc(N(C)C)cc1,?,?,.,-1.3,25,3.3%
C/C(Cn1nnc([N+](=O)[O-])n1)=N\NC(=O)c1ccc(Cl)c(Cl)c1,8.7,-2,7,-0.4,17,-4.3%[38.3 µM]
Fc1cccc(Cc2c(-c3cccc(Cl)c3)nc3c(Cl)cc(C(F)(F)F)cn23)c1,-3.7,18,3,-0.4,-8,3.1%
S=c1[nH]nc(-c2ccco2)n1Cc1ccccc1,0.4,4,25,-0.4,-10,0.4%
CC(=O)c1cccc(CN2CCN(Cc3ccccc3)C(CCO)C2)c1 (stereo unspecified),-2.5,2,-24,0.1,-34,0.7%
C=CCn1c(C)csc1=Nc1ccccc1C,0.8,-21,22,0.9,-7,1.9%
COc1ccc(CNC(=O)C2CC(O)CN2C(=O)Nc2ccccc2)cc1 (stereo unspecified),-5.4,10,-1,0.2,-4,-0.7%
CCN(CC)S(=O)(=O)c1ccc(/C=C/C(=O)OCC#N)cc1,-2.3,9,12,-0.7,1,-0.7%
Cc1ccc(S(=O)(=O)N2CCOCC2)c(C)c1NS(C)(=O)=O,3.7,7,11,-0.6,-1,3.2%
O=C(NC1CCCCCC1)c1cccnc1Sc1ccccc1,-1.5,4,30,0.8,-5,2.5%
Cc1cc(-c2nnc(SCC(=O)NC3CC3)n2C(C)C)cs1,-0.9,5,5,0.2,12,-1.5%
Cc1c(-c2cccc(Cl)c2)nc2ccccc2c1C(=O)OCC(=O)Nc1ccc2c(c1)OCO2,1.0,-20,18,-0.8,-6,1.1%
CCC(=O)N1CCc2cc(S(=O)(=O)CCC(=O)Nc3cccc(C)n3)ccc21,1.7,4,-15,2.1,0,0.2%
CCCc1sc(C(=O)Nc2nnc(C3CC3)s2)cc1CC,1.0,3,-3,0.4,-1,?
COc1cccc(N=Cc2ccc(O)cc2O)c1,2.8,0,-17,2.1,8,0.1%[38.3 µM]
Cc1ccccc1NC(=S)N(CCCN1CCOCC1)Cc1cccnc1,-0.1,6,-5,0.7,-1,-1.3%
O=C(c1cc(-c2ccccn2)nc2ccccc12)N1CCN(c2ncccn2)CC1,-7.1,4,2,-0.3,-11,0.0%
CCN(CC)C(=O)Cn1ncc2c([nH]c3ccc(C)cc32)c1=O,.,.,17,1.6,.,2.3%
